Screening data from PubChem BioAssay.
Arbovirus inh = blocks arbovirus infection | arbovirus infection cell-based antiviral screen | AID 1251 | 200,000 compounds, 0.37% hits | inhibition, % at 10 µM;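 active = inhibition from about 30%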;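 note: bluetongue infection of BSR cells; cell survival read as ATP light after 72 h; 0% = infected wells without compound and 100% = uninfected wells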
Mtb bLac sens = beta-lactam sensitization of Mtb H37Rv. M. tuberculosis H37Rv growth with meropenem, percent inhibition; hits of this screen are not shown here. inhibition, % at 25 µM. 330,000 compounds, 0.27% hits. AID 434955;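 active = about 74% or more and at least 40 points above the plate without the antibiotic, then above 30% in a dose series; inconclusive = first-round hits that could not be retested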;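 note: growth measured after seven days incubation then overnight dye step; 0% = bacteria only wells and 100% = bacteria with antibiotic; twin plates without the antibiotic show which effects depend on it; some results filed as inactive read as strong as hits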
RecA intein inh = blocks M. tuberculosis RecA intein splicing; 290,000 compounds, 0.75% hits; AID 2221; cell-free RecA intein splicing, fluorescence; P9WHJ3; inhibition, %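 (about 9 µM by stock and volumes)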; in the data active = inhibition above about 30%; inconclusive = no clear call, values can overlap the other calls;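 note: 0% = vehicle wells and 100% = reference inhibitor control wells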
Target sequence (P9WHJ3 whole entry, looked up): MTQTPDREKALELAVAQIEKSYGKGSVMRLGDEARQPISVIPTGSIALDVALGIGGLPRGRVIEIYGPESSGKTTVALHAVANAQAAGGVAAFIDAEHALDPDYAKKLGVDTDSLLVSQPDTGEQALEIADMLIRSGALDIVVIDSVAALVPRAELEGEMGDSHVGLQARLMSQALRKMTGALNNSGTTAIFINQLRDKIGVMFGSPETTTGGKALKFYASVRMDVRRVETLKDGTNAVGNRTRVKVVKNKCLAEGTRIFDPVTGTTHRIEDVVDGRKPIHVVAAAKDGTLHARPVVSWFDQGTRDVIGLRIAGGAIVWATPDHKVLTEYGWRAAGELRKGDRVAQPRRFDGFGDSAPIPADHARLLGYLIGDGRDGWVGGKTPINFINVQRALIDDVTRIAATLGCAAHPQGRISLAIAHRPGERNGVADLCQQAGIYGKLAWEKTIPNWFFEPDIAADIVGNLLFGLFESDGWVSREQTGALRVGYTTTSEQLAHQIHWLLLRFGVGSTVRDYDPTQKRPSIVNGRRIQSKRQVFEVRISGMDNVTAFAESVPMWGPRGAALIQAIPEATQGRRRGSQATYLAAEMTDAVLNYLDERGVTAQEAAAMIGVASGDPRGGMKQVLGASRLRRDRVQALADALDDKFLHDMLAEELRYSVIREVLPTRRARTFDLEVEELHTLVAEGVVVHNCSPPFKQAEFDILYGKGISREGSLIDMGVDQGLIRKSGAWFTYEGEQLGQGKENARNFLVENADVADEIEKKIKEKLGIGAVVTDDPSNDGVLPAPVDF
YopH inh = inhibitors of Yersinia enterocolitica YopH tyrosine phosphatase; fluorescence Ex485/Em525; inhibition, %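 (about 10 µM by stock and volumes)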; 140,000 compounds, 0.16% hits;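 active = inhibition of 50% or more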;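 note: controls were vehicle for no effect and minimum signal wells for full effect; inactives centre near -20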
Mtb H37Rv = M. tuberculosis H37Rv growth inhibitors, H37Rv strain (AID 1626) | M. tuberculosis H37Rv growth inhibition; higher % means a stronger effect | inhibition, % at 10 µM; hits with a dose series show IC50 in µM | 220,000 compounds, 0.95% hits;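 active = confirmed in a dose series; inconclusive = inhibition above 80% but not taken into the dose series; inactive = below 80% or under 30% at every dose of the series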;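 note: bacteria incubated seven days before Alamar blue readout; 0% = bacteria only wells and 100% = bacteria with antibiotic wells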
Arbovirus inh repeat = also measured in Arbovirus inh; calls as there; inhibition, %; measured here: 10K subset replicate screen; many hits read low in the repeat;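 first of two repeat runs on a subset; 0% = infected and 100% = uninfected wells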
The depositor's hits bear a star; ? = inconclusive; · = not tested or not shown; & = joins results of further samples. An excerpt; the hit share may differ from the screen's.

SMILES | Arbovirus inh | Mtb bLac sens | RecA intein inh | YopH inh | Mtb H37Rv | others
CCOC(=O)NCc1ccc(Cl)c(Cl)c1 | -5.1 | -7.2 | -0.2 | -105.6 | -10.0%
CN1C2C=C(N(CCc3c[nH]c4ccccc34)C(=O)c3ccc(Cl)cc3)CC1CC2 (stereo not given) | -30.0 | 4.2 | 2.8 | -39.8 | 2.5%
Cc1cc(SCc2ccccc2F)nc(=O)[nH]1 | · | -1.3 | 0.4 | · | ·
Cc1cc(C(=O)Nc2nc3c(s2)CCCC3)no1 | -5.0 | 78.6 | 0.2 | -19.7 | 3.0%
O=C(COC(=O)C1=Cc2ccccc2OC1)NCc1ccccc1 | · | -6.7 | 0.5 | · | ·
CC1=C(C(=O)OCc2ccccc2)C(c2ccc(-c3ccccc3)cc2)NC(=O)N1CCCC(=O)O (stereo not given) | · | 1.8 | 4.2 | · | -12.7%
CN(C)S(=O)(=O)c1ccc(C(=O)OCc2nnc(-c3ccccc3)o2)cc1 | · | 55.9 | 0.8 | · | 6.4%
O=C(CNC(=O)c1sc2ccccc2c1Cl)OCc1ccccc1 | · | 70.7 | 5.0 | · | ·
CC1CC(C)CN(CCCNC(=O)CCC(=O)N2CCOc3ccccc32)C1 (stereo not given) | · | 3.2 | -2.2 | · | ·
CCOC(=O)Cc1csc(N/N=C/c2ccc(Cl)cc2)n1 | · | -4.6 | -2.4 | · | 2.4%
Cc1cccc(NC(=O)COc2ccc(/C=N\n3cnnc3)cc2)c1 | 2.4 | 10.0 | 0.7 | 16.7 | 2.9%
Cc1nc(N)c(C#N)c(-c2cccnc2)c1C | 3.5 | -5.3 | 0.3 | 3.0 | -4.1%
COc1ccc(N2CCN(CCCNC(=O)c3cc4sccc4n3C)CC2)cc1 | 2.9 | -10.4 | -2.5 | -30.0 | 3.1%
Cc1ccccc1OCC(O)CN1CCN(c2ccc(Cl)cc2)CC1 (stereo not given) | · | 17.8 | 5.0 | · | 21.6%
COCCCNC(=O)C1CC(=O)OC1c1ccc(OC)c(OC)c1 (stereo not given) | 6.2 | ? | -7.9 | 15.5 | -4.0%

The list goes on; the last four above are carried over.
SMILES | Arbovirus inh | Mtb bLac sens | RecA intein inh | YopH inh | Mtb H37Rv | others
Cc1nc(N)c(C#N)c(-c2cccnc2)c1C | 3.5 | -5.3 | 0.3 | 3.0 | -4.1%
COc1ccc(N2CCN(CCCNC(=O)c3cc4sccc4n3C)CC2)cc1 | 2.9 | -10.4 | -2.5 | -30.0 | 3.1%
Cc1ccccc1OCC(O)CN1CCN(c2ccc(Cl)cc2)CC1 (stereo not given) | · | 17.8 | 5.0 | · | 21.6%
COCCCNC(=O)C1CC(=O)OC1c1ccc(OC)c(OC)c1 (stereo not given) | 6.2 | ? | -7.9 | 15.5 | -4.0%
CN(C)c1ccc(-c2cccc(C3CC=CC4C3C(=O)N(Cc3ccccc3)C4c3ccc4ccccc4c3)c2)cc1 (stereo not given) | · | -8.4 | 0.2 | · | -1.7%
CCOC(=O)C1=C(Nc2ccccc2)CC(C)(O)C(C(=O)OCC)C1c1ccc(Cl)cc1 (stereo not given) | 20.6 | -4.3 | · | -14.3 | 10.9%
Cn1nc(-c2ccc(C(=O)Nc3cccnc3)cc2)c2ccccc2c1=O | -0.4 | ? | 0.2 | -34.2 | -12.0%
Cc1ccc(CCNC(=O)C2CCCN(c3ncnc4c3nc3n4CCCCC3)C2)cc1 (stereo not given) | · | -2.8 | -0.7 | · | ·
CC(Oc1ccc(Cl)cc1Cl)c1nc(-c2ccccn2)no1 (stereo not given) | -24.6 | 12.8 | 5.8 | -6.5 | 0.2% | Arbovirus inh repeat=-17.2
CC(C)CCNC(=O)C1CC(c2ccccc2C(F)(F)F)=NO1 (stereo not given) | · | 13.4 | -0.9 | · | -5.3%
COc1cc(OC)cc(C(=O)Nc2nc3ccc(S(C)(=O)=O)cc3s2)c1 | 4.4 | 7.6 | -4.6 | · | 11.0%
CCCc1cc(=O)oc2c(CNc3ccc(OCC)cc3)c(O)ccc12 | · | 97.3 | -41.9 | · | ·
CCn1c(SCC(=O)NCCOC)nc2sc3c(c2c1=O)CCCC3 | 11.8 | 7.8 | 1.0 | 3.4 | 6.1%
CCOC(=O)c1c(NC(=O)c2ccc(S(=O)(=O)N(C)CC3CCCO3)cc2)sc2c1CC(C)(C)NC2(C)C (stereo not given) | · | 2.2 | 2.9 | · | ·
Cn1c(=O)c2c(nc(Br)n2C)n(C)c1=O | 7.8 | -0.8 | -1.5 | -18.0 | -4.2%
Cc1ccc(Nc2nc(N)c([N+](=O)[O-])c(N3CCCC(C)C3)n2)cc1C (stereo not given) | -48.3 | 97.7 | 7.3 | -1.2 | 78.4%
CC(C)(C)n1nc(Cc2cccc3ccccc23)c2c(N)ncnc21 | · | 10.3 | 1.1 | · | 4.2%
S=c1[nH]nc(-c2cc(-c3ccccc3)n[nH]2)n1/N=C/c1cccs1 | · | 35.7 | 1.2 | · | -7.5%
C#CCOCCOCCOCCNc1nc(N2CCN(C(=O)[C@H](CCC(=O)O)n3cc(C(N)Cc4ccc(O)cc4)nn3)CC2)nc(N2CCN(C(=O)[C@H](Cc3ccc(O)cc3)n3cc(C(N)CC(C)C)nn3)CC2)n1 (stereo not given in full) | · | · | 1.0 | · | -13.8%
O=C(Nc1ccc(Cl)c(Cl)c1)Nc1ccc(N2CCCC2)c(S(=O)(=O)Nc2ccccc2Cl)c1 | -10.8 | 8.0 | 11.8 | -26.1 | 12.7%
COc1ccc(-c2nc(N)n(C(=O)c3ccccc3)n2)cc1 | 1.2 | · | 1.3 | · | 6.6%
Cc1cc(C)cc(C(=O)NC(CC(N)=O)c2ccc(N3CCN(c4ccccc4)CC3)c([N+](=O)[O-])c2)c1 (stereo not given) | · | 52.2 | 2.8 | · | ·
COc1cc(NS(=O)(=O)c2ccc(NC(=S)Nc3ccccc3)cc2)nc(OC)n1 | · | 8.0 | -1.1 | · | ·
CCCc1cc(=O)[nH]c(SCC(=O)Nc2ncc(S(=O)(=O)c3ccc([N+](=O)[O-])cc3)s2)n1 | · | -7.2 | -0.2 | · | -4.0%
S=C(NCc1ccco1)N1CCN(Cc2ccco2)CC1 | 4.4 | -6.7 | -3.1 | -28.0 | -9.0%
Cc1ccc(-c2nn(-c3ccccc3)cc2/C=C/C(=O)Nc2cccc(S(N)(=O)=O)c2)cc1 | -4.3 | 3.4 | 3.8 | · | 7.2%
Cc1cc(NCCCN(C)C)n2nc(-c3cccs3)cc2n1 | -10.2 | -13.6 | -2.1 | -17.4 | -1.5%
O=C(COc1ccc(F)cc1)Nc1nnc(C2CC2)s1 | · | -1.6 | 0.9 | · | ·
CCOC(=O)c1cnn(-c2ccc(NS(=O)(=O)c3ccc(Cl)cc3)cc2)c1C(F)(F)F | · | -3.5 | 8.9 | · | 2.0%
CCC(C)[C@H](NC(=O)OC(C)(C)C)C(=O)N/N=C/c1cccc2nccnc12 (stereo not given in full) | -12.5 | -6.1 | -0.1 | 7.2 | -8.6%
COc1ccc(CNC(=O)C(C)OC(=O)c2cccs2)cc1 (stereo not given) | · | 1.9 | -1.6 | · | ·
CCc1ccc2c(CN(CC)Cc3nc4ccccc4c(=O)[nH]3)cc(=O)oc2c1 | 1.2 | -5.0 | 0.0 | -19.7 | -3.7%
CC(=O)c1cccc(OC(=O)c2ccc3c(=O)n4c(nc3c2)CCC4)c1 | · | 77.6 | 4.3 | · | ·
Cc1sc(NC(=O)CSc2nc(O)cc(=O)[nH]2)nc1-c1ccccc1 | 2.2 | 2.7 | 3.1 | · | 3.5%

Pulled one by one from the list above (two):
SMILES | Arbovirus inh | Mtb bLac sens | RecA intein inh | YopH inh | Mtb H37Rv | others
COc1ccc(-c2nc(N)n(C(=O)c3ccccc3)n2)cc1 | 1.2 | · | 1.3 | · | 6.6%
CCCc1cc(=O)[nH]c(SCC(=O)Nc2ncc(S(=O)(=O)c3ccc([N+](=O)[O-])cc3)s2)n1 | · | -7.2 | -0.2 | · | -4.0%

(more compounds)
SMILES | Arbovirus inh | Mtb bLac sens | RecA intein inh | YopH inh | Mtb H37Rv | others
Cc1ccc(CN2CCN(CC(=O)N/N=C/c3c[nH]c4ccccc34)CC2)cc1 | -4.5 | -6.0 | -2.0 | -21.6 | 3.2%
O=C(Nc1ccccc1N1CCCCC1)c1ccc2nccnc2c1 | 0.6 | 85.5 | 1.4 | -0.6 | 25.4%
c1ccc(CSc2nnnn2-c2ccccc2)cc1 | -4.3 | 1.3 | 5.3 | 5.5 | 9.0%
CC(=O)N1c2ccc(S(=O)(=O)N(C)Cc3ccccc3)cc2CC1C (stereo not given) | · | -0.9 | -1.8 | · | ·
COc1ccc(C2CC(c3ccccc3)=NN2c2ccccc2)c(C(=O)O)c1OC (stereo not given) | 8.7 | 7.7 | -16.9 | · | 1.5%
COc1ccc(OC)c(/C=C/C(=O)NCCc2nc3ccccc3[nH]2)c1 | · | 0.7 | · | · | 0.0%
CCc1ccc(CN2CCCC(C(=O)N3CCCCC3)C2)cc1 (stereo not given) | · | -3.5 | -3.4 | · | ·
COc1ccc(N2C(=O)CC(NC3CC3)C2=O)cc1 (stereo not given) | 6.9 | -9.9 | 0.7 | -23.9 | -0.8%
NC(=NCCCCCCN=C(N)/N=C(\N)Nc1ccc(Cl)cc1)/N=C(\N)Nc1ccc(Cl)cc1 | · | 100.0&100.0&100.1 | 24.7&22.9&-14.5 | · | ·
C=CCC1c2cccc(C(=O)OC)c2C(=O)N1c1ccccc1 (stereo not given) | 3.0 | -2.2 | 6.2 | -23.0 | 1.9%
Cc1cc(C)n2cc(CSc3nnc(SCc4cn5c(C)cc(C)nc5n4)s3)nc2n1 | 7.2 | · | · | -35.4 | -0.1%
O=C(/C=C/c1ccc2c(c1)OCO2)N1CCN(c2ccccc2F)CC1 | 8.7 | -5.8 | 3.2 | -29.0 | 13.6%
COc1ccc(/C=N/Nc2ccccc2C(=O)O)cc1Cn1cc([N+](=O)[O-])cn1 | · | 0.5 | -1.6 | · | -1.0%
CC(=O)N/C(=C/c1ccccc1)C(=O)N1CCCCC1 | -0.6 | -6.4 | -0.6 | -24.0 | -6.9%
COc1ccc(CNC(=O)C2CC(c3ccccc3C(F)(F)F)=NO2)cc1 (stereo not given) | · | 0.4 | -0.4 | · | -9.1%
Cc1nc(CCNC(=O)CC2C(=O)NCCN2CC(C)C)nc2c1CCC2 (stereo not given) | · | -11.1 | -4.9 | · | ·
CN(C)C1(c2nnnn2CCOC(=O)Nc2ccc(Cl)cc2)CCCCC1 | -30.7 | -15.0 | 5.7 | -18.8 | 5.0%
O=S(=O)(N/N=C\c1ccc2c(c1)OCO2)c1ccccc1 | · | 8.0 | 0.2 | · | ·
CCC(C)N1CC23C=CC(O2)C(C(=O)OCc2ccccc2)C3C1=O (stereo not given) | 5.0 | -2.0 | 6.4 | -9.1 | -6.5%
COCCSc1ccccc1C(=O)N1CCN(Cc2ccccc2)CC1 | 1.2 | -0.1 | 3.9 | · | -8.1%
C=CCN=C1SC(C)C(=O)N1S(=O)(=O)c1ccccc1 (stereo not given) | 8.5 | -0.3 | 1.0 | -14.4 | 2.6%
O=C(NCc1ccncc1)/C(=N/O)c1ccccc1 | -2.8 | -11.9 | 0.3 | -45.4 | 1.1%
O=c1[nH]cnc2ncc(-c3ccc(O)cc3)nc12 | · | -5.0 | -2.1 | · | ·
O=C1CCN(S(=O)(=O)c2ccccc2)CCN1CCOCc1ccc(Cl)cc1 | · | -21.2 | 1.3 | · | -4.4%
CCc1nnc(NC(=O)CCN2C(=O)c3ccccc3C2=O)s1 | 1.2 | 5.5 | -2.3 | -52.5 | -3.0%
CCCC(=O)NC(=S)Nc1sc2c(c1C(N)=O)CCC2 | -2.9 | 1.7 | -3.0 | -17.8 | -1.8%
Cc1ccc(NS(=O)(=O)c2ccc(CCC(=O)O)cc2)cc1 | 4.7 | -4.0 | -1.6 | -46.8 | -1.2%
Cc1ccc(CN(c2ccc(C(=O)N3CCc4ccccc4C3)cc2)S(C)(=O)=O)cc1 | -0.3 | 7.4 | 4.3 | 3.6 | 6.8%
CCOC(=O)N1CCN(C(=O)c2ccc(C)c(S(=O)(=O)Nc3ccccc3)c2)CC1 | 8.3 | -1.6 | 1.0 | -17.5 | 0.8%
CCOC(=O)Nc1ccc(S(=O)(=O)Nc2cc(C)on2)cc1 | 7.2 | 2.3 | -0.5 | -21.6 | -5.6%
Cc1sc2nc(SCC(=O)NCc3cccs3)[nH]c(=O)c2c1C | -4.9 | -6.0 | -1.0 | -31.7 | -0.6%
CNC(=O)OCc1cccc(COC(=O)NC)n1 | 3.7 | -1.3 | -1.2 | -51.9 | -4.0%
COc1ccccc1NC(=O)c1cc(S(=O)(=O)N2CCc3ccccc32)ccc1F | · | -4.1 | -2.6 | · | ·
NC(=O)NC(=O)C(Nc1ccc(N2CCCCC2)cc1)c1ccccc1 (stereo not given) | · | 1.0 | -1.3 | · | ·
